# Bioassay records: PubChem BioAssay, Broad Institute
# A1 apoptosis 2: blocks A1, raising caspase activity | MEF A1-2A-BIM cells, caspase-Glo luminescence, 3 h; percent of clofoctol response, DMSO zero | caspase activation, % (concentration not given with the values) | 24,000 tested, under 10 active | AID 2465; in the data active = caspase activation above about 5.9%;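 note: wells of about 30 µL received 50 nL stock; the first replicate is given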
#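 Evaluation: Caspase-3/7 activity from luminescence increase | Assay system: A1-2A-BIM mouse embryonic fibroblasts | Quantity: 2500 MEF cells/well | Medium: RPMI-1640 plus 10% FBS | Detection: Caspase-Glo 3/7 luminescence, 1 h at room temperature | Dosing: 50 nL compound per well, pinned | Timing: Cells settled overnight, compound exposure 3 h at 37 °C, 5% CO2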
# Starred values were filed as active, the others as inactive. The list is partial (hit frequency here may not be typical).
SMILES,A1 apoptosis 2
COc1ccc(S(=O)(=O)Nc2ccc3c(c2)CC(=O)N([C@@H](C)CO)C[C@@H](C)[C@@H](CN(C)Cc2ccc(C(=O)O)cc2)O3)cc1,0.3
Cc1noc(C)c1NC(=O)Nc1ccc2c(c1)CC(=O)N([C@H](C)CO)C[C@@H](C)[C@@H](CN(C)CC1CCCCC1)O2,-0.1
COc1cc2c(cc1OC)CN(C(=O)[C@H]1[C@@H]3C(=O)O[C@@H](c4ccccc4)[C@@H](c4ccccc4)N3[C@@H](c3ccccc3OCCO)[C@]13C(=O)Nc1ccc(C#CC4=CCCCC4)cc13)CC2,-0.7
COc1ccc(CN(C)C[C@H]2Oc3ccc(NC(=O)c4ccncc4)cc3CC(=O)N([C@@H](C)CO)C[C@H]2C)cc1,-0.6
Cc1ccccc1/C=N/NC(=O)CCCCCC(=O)NO,0.5
C[C@H]1CN([C@@H](C)CO)C(=O)c2cc(NS(=O)(=O)c3cn(C)cn3)ccc2O[C@@H]1CN(C)C(=O)Nc1ccc(C(F)(F)F)cc1,-0.9
CNC[C@@H]1Oc2ccc(NC(=O)Nc3ccccc3)cc2CC(=O)N([C@H](C)CO)C[C@@H]1C,0.3
Cc1noc(C)c1NC(=O)N(C)C[C@H]1OCCCC[C@H](C)Oc2ccc(NS(C)(=O)=O)cc2C(=O)N([C@H](C)CO)C[C@@H]1C,-0.4
C[C@H]1CN([C@@H](C)CO)C(=O)c2cc(NC(=O)CCC(F)(F)F)ccc2O[C@@H]1CN(C)Cc1ccc(-c2ccccc2)cc1,-0.1
C[C@H]1CN([C@@H](C)CO)C(=O)c2cc(NC(=O)Nc3ccccc3)ccc2O[C@H]1CN(C)Cc1ccc(C(=O)O)cc1,-0.1
C[C@H](CO)N1C[C@H](C)[C@@H](CN(C)C(=O)Nc2cccc(Oc3ccccn3)c2)OCc2cn(nn2)CCCC1=O,-0.3
O=C1CSC(c2ccccc2)N1c1ccc(-c2ccccc2)cc1 (stereo not drawn),-1.1
C[C@H]1CN([C@@H](C)CO)C(=O)Cc2cc(NS(=O)(=O)c3ccc(Cl)cc3)ccc2O[C@H]1CN(C)S(=O)(=O)c1cn(C)cn1,0.4
C[C@@H]1CN([C@H](C)CO)C(=O)Cc2cc(NC(=O)CCCN(C)C)ccc2O[C@@H]1CN(C)S(=O)(=O)c1ccc(F)cc1,-0.6
C[C@@H]1CN([C@@H](C)CO)C(=O)Cc2cc(NC(=O)Cc3ccccc3)ccc2O[C@@H]1CN(C)C(=O)Nc1ccc(F)cc1,-0.1

# Reformatted field by field: entries from further up.
Cc1ccccc1/C=N/NC(=O)CCCCCC(=O)NO
  A1 apoptosis 2: 0.5

C[C@H]1CN([C@@H](C)CO)C(=O)c2cc(NC(=O)CCC(F)(F)F)ccc2O[C@@H]1CN(C)Cc1ccc(-c2ccccc2)cc1
  A1 apoptosis 2: -0.1

# Next section:
SMILES,A1 apoptosis 2
C[C@@H]1CCCCO[C@@H](CN(C)C)[C@H](C)CN([C@@H](C)CO)C(=O)c2cc(NS(=O)(=O)c3ccc(Cl)cc3)ccc2O1,0.5
C[C@@H]1CN([C@@H](C)CO)C(=O)Cc2cc(NC(=O)Cc3cn(C)c4ccccc34)ccc2O[C@@H]1CN(C)C,0.9
C[C@@H]1CN([C@H](C)CO)C(=O)Cc2cc(NS(C)(=O)=O)ccc2O[C@H]1CN(C)C(=O)Nc1ccccc1,-0.4
C[C@H]1CN([C@@H](C)CO)C(=O)Cc2cc(NC(=O)NC3CCCCC3)ccc2O[C@H]1CN(C)C(=O)Nc1cccc2ccccc12,0.8
Cc1ccc(S(=O)(=O)N(C)C[C@@H]2OCCCC[C@H](C)Oc3ccc(NC(=O)Nc4ccccc4)cc3C(=O)N([C@@H](C)CO)C[C@@H]2C)cc1,-0.1
C[C@@H]1CN([C@@H](C)CO)C(=O)c2cc(N(C)C)ccc2O[C@@H]1CN(C)C,-0.6
C[C@@H]1CN([C@H](C)CO)C(=O)Cc2cc(NS(C)(=O)=O)ccc2O[C@H]1CN(C)S(=O)(=O)c1ccc(F)cc1,1.7
Cc1noc(C)c1S(=O)(=O)Nc1cccc2c1O[C@H](CN(C)Cc1ccc(Cl)c(Cl)c1)[C@H](C)CN([C@H](C)CO)C2=O,-0.2
COc1cc(/C=N/NC(=O)c2ccccc2O)cc(OC)c1OC,0.1
Cc1ccc(S(=O)(=O)N(C)C[C@@H]2Oc3c(NC(=O)C4CC4)cccc3C(=O)N([C@H](C)CO)C[C@H]2C)cc1,1.3
C[C@H](CO)N1C[C@H](C)[C@@H](CN(C)Cc2ccc(Oc3ccccc3)cc2)Oc2c(NS(=O)(=O)c3cn(C)cn3)cccc2C1=O,0.3
C[C@@H]1CN([C@@H](C)CO)C(=O)c2cc(NS(C)(=O)=O)ccc2O[C@@H](C)CCCCO[C@H]1CN(C)Cc1ccc(C(F)(F)F)cc1,1.6
O=C(C1=C[C@@H](C2CCCCC2)C[C@@H](OCc2ccc(CO)cc2)O1)N1CCOCC1,0.9
C[C@@H]1CN([C@@H](C)CO)C(=O)Cc2cc(NC(=O)CCC(F)(F)F)ccc2O[C@@H]1CN(C)CC1CCCCC1,-2.1
C[C@H]1CN([C@@H](C)CO)C(=O)c2cccc(NC(=O)c3cnccn3)c2O[C@@H]1CN(C)C(=O)Nc1ccc(C(F)(F)F)cc1,0.4

# Two of these compounds in a different format:
Structure | A1 apoptosis 2
Cc1ccc(S(=O)(=O)N(C)C[C@@H]2OCCCC[C@H](C)Oc3ccc(NC(=O)Nc4ccccc4)cc3C(=O)N([C@@H](C)CO)C[C@@H]2C)cc1 | -0.1
Cc1noc(C)c1NC(=O)N(C)C[C@H]1OCCCC[C@H](C)Oc2ccc(NS(C)(=O)=O)cc2C(=O)N([C@H](C)CO)C[C@@H]1C | -0.4

# (listing goes on)
SMILES,A1 apoptosis 2
C[C@@H]1CCCCO[C@H](CN(C)C(=O)Cc2ccccc2)[C@H](C)CN([C@H](C)CO)C(=O)c2cc(NC(=O)CCC(F)(F)F)ccc2O1,-0.8
C[C@@H]1CCCCO[C@@H](CN(C)C)[C@@H](C)CN([C@H](C)CO)C(=O)c2cc(NC(=O)Nc3ccccc3)ccc2O1,-0.2
C[C@H]1CN([C@@H](C)CO)C(=O)Cc2cc(NC(=O)C3CC3)ccc2O[C@@H]1CN(C)C,-0.2
C[C@@H]1CCCCO[C@H](CN(C)C)[C@H](C)CN([C@H](C)CO)C(=O)c2cc(NC(=O)CCC(F)(F)F)ccc2O1,-0.1
C[C@H]1CN([C@@H](C)CO)C(=O)c2cccc(NS(=O)(=O)c3cn(C)cn3)c2O[C@@H]1CN(C)Cc1ccc(Oc2ccccc2)cc1,-0.5
C[C@@H]1CN([C@@H](C)CO)C(=O)c2cc(NC(=O)C3CCCCC3)ccc2O[C@@H]1CN(C)S(=O)(=O)c1ccc(F)cc1,0.7
Cc1noc(C)c1NC(=O)Nc1ccc2c(c1)C(=O)N([C@@H](C)CO)C[C@H](C)[C@H](CN(C)C(=O)C1CCCCC1)OCCCC[C@@H](C)O2,-0.4
C[C@@H]1CN([C@H](C)CO)C(=O)c2cc(NS(C)(=O)=O)ccc2O[C@H]1CN(C)CC1CCCCC1,1.8
Cc1noc(C)c1S(=O)(=O)Nc1ccc2c(c1)CC(=O)N([C@H](C)CO)C[C@@H](C)[C@@H](CN(C)Cc1ccc(C(=O)Nc3ccccc3N)cc1)O2,-0.2
C[C@@H]1CCCCO[C@H](CN(C)C)[C@H](C)CN([C@@H](C)CO)C(=O)c2cc(NC(=O)CCC(F)(F)F)ccc2O1,-0.3
C[C@@H]1CCCCO[C@H](CN(C)C(=O)CCCN(C)C)[C@@H](C)CN([C@@H](C)CO)C(=O)c2cc(NC(=O)CCC(F)(F)F)ccc2O1,-0.2
COc1ccc(S(=O)(=O)N(C)C[C@H]2Oc3c(NC(=O)Nc4ccc(C(F)(F)F)cc4)cccc3C(=O)N([C@@H](C)CO)C[C@@H]2C)cc1,-0.7
C[C@H]1CN([C@@H](C)CO)C(=O)c2cccc(NC(=O)Nc3cccc4ccccc34)c2O[C@H]1CN(C)CC1CCCCC1,0.6
C[C@@H]1CN([C@@H](C)CO)C(=O)c2cccc(NS(=O)(=O)c3cn(C)cn3)c2O[C@@H]1CN(C)Cc1ccc(Oc2ccccc2)cc1,0.2
Cc1noc(C)c1S(=O)(=O)Nc1cccc2c1O[C@H](CN(C)Cc1ccc(-c3ccccc3)cc1)[C@H](C)CN([C@@H](C)CO)C2=O,-0.3
COc1ccc(S(=O)(=O)Nc2ccc3c(c2)C(=O)N([C@H](C)CO)C[C@@H](C)[C@H](CN(C)C)O3)cc1,0.1
C[C@H]1CN([C@@H](C)CO)C(=O)c2cc(NC(=O)Cc3ccccc3)ccc2O[C@@H]1CN(C)S(=O)(=O)c1ccc(F)cc1,0.0
COc1ccc(S(=O)(=O)N(C)C[C@@H]2Oc3ncc(C#Cc4ccc(F)cc4)cc3C(=O)N([C@H](C)CO)C[C@@H]2C)cc1,-1.2
O=C1NCC(=O)N2[C@@H]1C[C@@H](C(=O)NCc1ccc(F)cc1)[C@H]2c1cccc(OCCO)c1,-0.4
C[C@@H]1CN([C@@H](C)CO)C(=O)c2cccc(NS(C)(=O)=O)c2O[C@@H]1CN(C)C(=O)Nc1ccc(F)cc1,-0.6
COc1ccc(S(=O)(=O)Nc2ccc3c(c2)C(=O)N([C@@H](C)CO)C[C@H](C)[C@@H](CN(C)Cc2ccncc2)O3)cc1,0.4
Cc1noc(C)c1S(=O)(=O)Nc1ccc2c(c1)C(=O)N([C@H](C)CO)C[C@@H](C)[C@@H](CN(C)S(=O)(=O)c1ccc(Cl)cc1)OCCCC[C@H](C)O2,-0.5
CC(C)NC(=O)N(C)C[C@@H]1Oc2ccc(N(C)C)cc2CC(=O)N([C@H](C)CO)C[C@H]1C,-0.7
Cc1noc(C)c1NC(=O)Nc1ccc2c(c1)C(=O)N([C@H](C)CO)C[C@H](C)[C@H](CN(C)C(=O)Nc1c(C)noc1C)O2,-1.1
C[C@@H]1CN([C@H](C)CO)C(=O)c2cccc(NS(=O)(=O)c3ccccc3)c2O[C@@H]1CN(C)S(=O)(=O)c1ccccc1,-1.2
CC(C)NC(=O)Nc1ccc2c(c1)C(=O)N([C@H](C)CO)C[C@@H](C)[C@H](CN(C)S(C)(=O)=O)O2,-1.0
C[C@H]1CN([C@@H](C)CO)C(=O)c2cccc(NS(=O)(=O)c3ccc(F)cc3)c2O[C@H]1CN(C)Cc1ccc(-c2ccccc2)cc1,-1.3
C[C@@H]1CN([C@@H](C)CO)C(=O)Cc2cc(NC(=O)Nc3ccc(F)cc3)ccc2O[C@H]1CN(C)CC1CCCCC1,0.1
COc1ccc(S(=O)(=O)Nc2ccc3c(c2)C(=O)N([C@@H](C)CO)C[C@H](C)[C@@H](CN(C)C(=O)Nc2cccc4ccccc24)OCCCC[C@@H](C)O3)cc1,-0.5
Cc1ccc(S(=O)(=O)Nc2ccc3c(c2)CC(=O)N([C@H](C)CO)C[C@H](C)[C@H](CN(C)Cc2ccc4c(c2)OCO4)O3)cc1,1.9

# 4 compounds picked at random from the list so far, as already listed:
SMILES,A1 apoptosis 2
C[C@H]1CN([C@@H](C)CO)C(=O)c2cccc(NS(=O)(=O)c3ccc(F)cc3)c2O[C@H]1CN(C)Cc1ccc(-c2ccccc2)cc1,-1.3
Cc1noc(C)c1S(=O)(=O)Nc1ccc2c(c1)C(=O)N([C@H](C)CO)C[C@@H](C)[C@@H](CN(C)S(=O)(=O)c1ccc(Cl)cc1)OCCCC[C@H](C)O2,-0.5
C[C@@H]1CN([C@@H](C)CO)C(=O)c2cccc(NS(C)(=O)=O)c2O[C@@H]1CN(C)C(=O)Nc1ccc(F)cc1,-0.6
Cc1ccc(S(=O)(=O)Nc2ccc3c(c2)CC(=O)N([C@H](C)CO)C[C@H](C)[C@H](CN(C)Cc2ccc4c(c2)OCO4)O3)cc1,1.9

# Remaining list, next part
SMILES,A1 apoptosis 2
C[C@H]1CN([C@@H](C)CO)C(=O)c2cc(NS(=O)(=O)c3ccccc3)ccc2O[C@H]1CN(C)Cc1ccccc1,-1.7
C[C@H]1CN([C@@H](C)CO)C(=O)c2cc(NS(=O)(=O)c3ccc(F)cc3)ccc2O[C@H]1CN(C)C(=O)Nc1ccc(C(F)(F)F)cc1,-0.9
COc1ccc(NC(=O)N(C)C[C@H]2OCCCC[C@H](C)Oc3ccc(NS(=O)(=O)c4ccccc4)cc3C(=O)N([C@@H](C)CO)C[C@@H]2C)cc1,-1.0
CNC[C@H]1Oc2ccc(NC(=O)Nc3ccccc3)cc2CC(=O)N([C@@H](C)CO)C[C@@H]1C,0.3
C[C@H]1CN([C@@H](C)CO)C(=O)c2cccc(NS(=O)(=O)c3ccc(F)cc3)c2O[C@@H]1CN(C)C(=O)Nc1cccc2ccccc12,-1.8
C[C@H]1CN([C@@H](C)CO)C(=O)c2cccc(NC(=O)NC3CCCCC3)c2O[C@H]1CN(C)Cc1ccc2c(c1)OCO2,0.2
C[C@@H]1CCCCO[C@@H](CN(C)C(=O)c2ccccc2)[C@H](C)CN([C@H](C)CO)C(=O)c2cc(NC(=O)NC3CCCCC3)ccc2O1,0.1
C[C@H](CO)N1C[C@H](C)[C@H](CN(C)C(=O)C2CC2)OCc2cnnn2CCCC1=O,-0.7
O=C(CCCCCC(=O)Nc1ccccc1O)N/N=C/c1cccc(C(=O)O)c1,0.7
C[C@H](CO)N1C[C@H](C)[C@@H](CN(C)CC2CCCCC2)Oc2c(NC(=O)Nc3ccccc3)cccc2C1=O,-0.8
O=C(O)CCCCCC(=O)N/N=C/c1cccnc1Br,0.5
Cc1noc(C)c1NC(=O)N(C)C[C@@H]1Oc2ccc(NS(C)(=O)=O)cc2CC(=O)N([C@H](C)CO)C[C@H]1C,0.3
C[C@@H]1CN([C@H](C)CO)C(=O)c2cccc(NC(=O)C3CCCCC3)c2O[C@H]1CN(C)Cc1ccc(Oc2ccccc2)cc1,-1.4
C[C@H](CO)N1C[C@H](C)[C@@H](CN(C)C(=O)Nc2ccc3c(c2)OCO3)Oc2ccc(NS(=O)(=O)c3ccc(Cl)cc3)cc2C1=O,-0.4
